Beta apoptosis = blocks beta cell apoptosis | INS-1E cytokine-induced death, ATP luminescence, 48 h; percent of positive-control rescue, neutral wells zero | hit rate 0.8% among 300,000 | protection from apoptosis, % (concentration not given with the values);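 active = all replicates at 75% or more, or half of them and the mean; inconclusive = half reach 75% but not the mean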;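 also: 0% = cytokine-treated negative control wells and 100% = positive control rescue; higher means more ATP so stronger rescue from cytokine killing; wells of about 40 µL received 100 nL stock; the first replicate is given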
ALR inh = human ALR oxidase inhibition via reduced H2O2 | P55789 | purified ALR, DTT oxidation, H2O2 HRP-luminol luminescence | inhibition, % (no concentration beside the values) | hit rate 3.8% among 290,000;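 active = mean and each replicate at 75% or more; inconclusive = only one of the two met; inactive = neither met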;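 also: stock transfer was 7.5 nL into about 7.5 µL; 0% = neutral wells and 100% = wells with inactivated enzyme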
Target sequence (P55789 whole entry, looked up): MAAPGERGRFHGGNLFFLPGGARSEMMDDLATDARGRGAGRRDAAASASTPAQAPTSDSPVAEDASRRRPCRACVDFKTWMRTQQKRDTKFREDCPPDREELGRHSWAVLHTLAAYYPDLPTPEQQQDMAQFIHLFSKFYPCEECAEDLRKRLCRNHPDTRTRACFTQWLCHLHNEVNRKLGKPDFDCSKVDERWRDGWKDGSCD
Beta2AR agonist = activates human beta-2 adrenergic receptor causing internalization. Am2.2-beta2AR cells, FAP receptor internalization, flow cytometry; reference of the scale not given here. hit rate 0.43% among 340,000. response, % (concentration not given with the values);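 active = response above a set limit, near 3 SD of response in nonfluorescent compounds, cut at about 42% in these data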;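 also: stock transfer was 100 nL into about 11 µL; a reference agonist was the positive control; negative values mostly stem from fluorescent compounds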
Target sequence (P07550 whole entry, looked up): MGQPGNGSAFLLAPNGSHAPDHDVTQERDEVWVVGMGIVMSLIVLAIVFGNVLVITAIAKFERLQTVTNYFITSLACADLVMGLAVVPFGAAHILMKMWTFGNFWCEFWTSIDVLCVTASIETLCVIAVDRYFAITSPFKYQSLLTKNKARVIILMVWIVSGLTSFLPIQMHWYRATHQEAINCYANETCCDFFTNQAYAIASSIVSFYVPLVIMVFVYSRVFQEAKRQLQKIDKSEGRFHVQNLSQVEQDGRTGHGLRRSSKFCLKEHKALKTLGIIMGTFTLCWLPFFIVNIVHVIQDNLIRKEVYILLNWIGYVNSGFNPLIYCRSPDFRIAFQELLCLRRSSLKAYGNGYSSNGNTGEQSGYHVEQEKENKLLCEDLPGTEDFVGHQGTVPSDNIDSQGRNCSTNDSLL
Calb FLC = affects C. albicans growth with fluconazole; growth inhibition, % (no concentration beside the values); C. albicans CaCi-2 (fluconazole-resistant clinical isolate) + fluconazole, Alamar Blue growth, 48 h; hit rate 0.57% among 300,000;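 active = most replicates above 75%; inconclusive = exactly half above 75%; inactive = most below 75%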;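 also: all wells also contain fluconazole at 8 µg/ml as a sub-toxic cotreatment; 0% = median of DMSO wells and 100% = median of geldanamycin control wells; wells of about 8 µL received 7.5 nL stock; the first replicate is given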
T cruzi inh = T. cruzi replication inhibition | inhibition, % (test concentration not listed) | T. cruzi beta-gal in NIH3T3, luminescence, 90 h | hit rate 1.4% among 300,000;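 active = mean inhibition across valid replicates above about 55%, limit read from the data; inconclusive = mean below that limit but half or more replicates reach it; inactive = mean below it, under half of replicates reach it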;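 also: signal also drops with host cell toxicity which is not excluded here; 0% = plate median of DMSO wells and 100% = zero luminescence signal; higher percent means less beta-gal luminescence so fewer parasites; stock transfer was 50 nL into about 50 µL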
LANA-H2B inh = blocks KSHV LANA binding to histone H2A/H2B. Q9QR71. cell-free LANA-H2A/H2B peptide, fluorescence polarization. hit rate 0.6% among 320,000. inhibition, % (no concentration beside the values); in the data active = inhibition mostly above about 10%, no sharp cut-off; inactive = mostly below about 6.7%;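 also: stock transfer was 7.5 nL into about 10 µL; 0% = median of vehicle wells and 100% = median of positive control wells; one replicate is shown; the record names a cut of 25% in any replicate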
Ecoli rRNA inh = inhibitors of bacterial rRNA selective over humanized ribosomes. E. coli WT GFP vs humanized-ribosome RFP mutants, fluorescence, 24 h; hits give low values; DMSO median 0, no signal -100. GFP signal change (wild-type ribosome), % (concentration not given with the values). hit rate 1.6% among 350,000. AID 720706;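 active = significant combined selectivity score with lowered wild-type GFP, culture density cut under 30%, mutant RFP and density less affected; inactive = any of these conditions unmet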; also: one replicate is shown; some compounds called inactive have numbers as strong as hits
A1 inh = inhibitors of the anti-apoptotic protein A1, read as caspase activation; hit rate 0.066% among 330,000; MEF A1-2A-BIM cells, Caspase-Glo 3/7 luminescence, 3 h; percent of clofoctol response, vehicle zero; AID 2462; caspase activation, % (concentration not given with the values);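 active = over half of replicate activation scores above 10%, or exactly half above 10 with the replicate mean above 10; inconclusive = replicate mean below 10 yet half the replicates above 10; inactive = over half of replicates below 10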;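 also: wells of about 30 µL received 50 nL stock; many hits fall short of the cut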
Ecoli rRNA inh OD600 = also measured in Ecoli rRNA inh; calls as there; OD600 change, %; measured here: OD600 growth;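 optical density of the mix in the first replicate; 0 = DMSO median and -100 = no signal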
Ecoli rRNA inh RFP = also measured in Ecoli rRNA inh; calls as there; RFP signal change, %; measured here: RFP humanized mutant strains;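 first replicate; 0 = DMSO median and -100 = no signal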
Active calls of the source: *; ? = inconclusive; . = not tested or not shown; & = joins results of further samples. An excerpt (hit frequency here may not be typical).

SMILES	Beta apoptosis	ALR inh	Beta2AR agonist	Calb FLC	T cruzi inh	LANA-H2B inh	Ecoli rRNA inh	Ecoli rRNA inh OD600	Ecoli rRNA inh RFP	A1 inh
Cc1ccc(C(=O)Nc2cc(S(=O)(=O)N3CCOCC3)ccc2N2CCCC2)cc1	-2	0	-78	.	.	2.6	7	6	2.0	-1.2
CCOC(=O)c1ccc(NC(=O)c2c(NC(=O)CCC(=O)O)sc3c2CCCCC3)cc1	4	-5	7	-6	10	-3.4	-3	-10	8.7	0.2
CCCCc1cc(=O)oc2cc(OCC(=O)NCc3ccccn3)c(Cl)cc12	-4	-1	0	-9	-12	5.2	6	5	-5.7	-0.8
COc1ccc(/C=C/C(=O)OCC(=O)NC2CCCC2)cc1	-6	-1	-4	.	.	-0.9	8	15	0.0	-1.4
CCOC(=O)c1c(CS(=O)(=O)c2ccccc2)n(C)c2cc(Br)c(O)c(CN(C)C)c12	.	4	-8	0	4	5.8	-9	-13	8.1	1.0
COc1ccccc1C1=NN(C2=NN=C(N)Cc3ncnn32)C(O)(C(F)(F)F)C1 (stereo not drawn)	-1	-3	3	-6	-12	5.4	2	5	-0.9	-0.1
O=C(CSc1n[nH]c(=O)[nH]c1=O)c1ccccc1[N+](=O)[O-]	-15	18	-10	-23	6	-1.3	4	1	3.6	0.3
Cc1cc(C(=O)Nc2ccc(N3CCOCC3)cc2)c2ccccc2n1	2	2	6	?	6	3.4	.	.	.	0.6
CCN=C(Nc1ccc2c(c1)OCO2)SC1CC(=O)N(c2ccc(OC)cc2)C1=O (stereo not drawn)	-3	.	14	-6	7	-5.0	.	.	.	0.7
Nc1nc2c3ccccc3nc(Cc3ccccc3)n2n1	0	4	-7	-13	-10	0.3	.	.	.	-0.4
O=C(NCCOc1ccccc1F)C1CC(=O)N(Cc2ccccc2)C1 (stereo not drawn)	1	-3	1	.	.	3.1	0	-3	-2.4	-0.3
O=C(NC1CCCCC1)C(c1cccs1)N(Cc1cccs1)C(=O)c1ccco1 (stereo not drawn)	-9	.	6	-8	27	-7.9	.	.	.	-0.7
CC1(C)CC(=O)C2=C(C1)NC(=S)C(C#N)C21CCCCC1 (stereo not drawn)	3	-2	-3	-2	20	-2.3	0	0	-2.2	-0.3
COc1ccc(Cn2nnnc2CN(Cc2cc3ccc(C)cc3[nH]c2=O)C2CCCC2)cc1	3	-2	-13	6	17	1.1	.	.	.	0.1
O=C(O)c1nc2nc(Cl)c(Cl)nc2[nH]1	2	.	0	9	-22	-7.3	10	8	-0.2	-0.4
O=c1cc(N2CCCCC2)c(-c2ccccc2)nn1Cc1ccccc1Cl	11	.	3	0	20	1.0	.	.	.	-0.4
CCC[N+]1(CC#CC(O)(c2ccccc2)C2CCCCC2)CCCCC1 (stereo not drawn)	-1	.	-4	-1	-27	4.8	-36*	12*	-1.3*	-0.6
COc1ccc(NS(=O)(=O)c2cc(NC(=O)c3cncc(Br)c3)ccc2OC)cc1	4	-6	0	.	.	-2.7	-11	-30	-5.0	0.4
O=C(CCS(=O)(=O)c1cccc2nonc12)Nc1ccc(Br)cc1	0	-4	-8	7	4	-3.4	3	11	-0.6	-0.3
Cc1cc(C)c(C)c(OCC(=O)NCCN(C)C)c1	-2	-19	1	5	18	-7.7	.	.	.	-0.6
CC1CN(C(=O)c2nn(C)cc2[N+](=O)[O-])CC(C)O1 (stereo not drawn)	-1	-7	4	0	-17	-0.8	.	.	.	0.4
O=C(Nc1ccc(O)cc1C(=O)O)c1ccc(NC(=O)c2ccco2)cc1	1	54	4	.	.	.	-1	2	0.0	-1.3
Cc1ccc(CN2CCN(Cc3cnc(C)s3)CC2CCO)cc1 (stereo not drawn)	3	10	3	-13	7	-1.8	12	11	-0.6	0.6
Cc1occc1-c1nc(-c2ccncc2)no1	0	-3	5	?	23	0.7	.	.	.	-6.0
COc1ccc(C(=O)/C=C/C(=O)N(CC(=O)NC2CCCCC2)Cc2ccccc2OC)c(O)c1	.	.	95*	-10	89*	.	16	-1	3.6	.
Cc1c(C(=O)Nc2c(C)n(C)n(-c3ccccc3)c2=O)oc2ccc(Cl)cc12	-3	4	-6	18	-6	-2.0	-6	-21	-0.9	0.0
CCn1cc(C(=O)OCC(=O)c2cc(C)n(-c3ccccc3)c2C)c(=O)c2ccc(C)nc21	-1	9	0	39	17	1.6	.	.	.	2.4
Cc1cccc(-c2noc(CCC(=O)NCc3ccccc3)n2)c1	-7	2	1	-9	1	-0.5	.	.	.	-0.8
C=CCn1c(SCC(=O)NC2CCCCC2)nnc1-c1cccnc1	-2	1	7	.	-4	-1.7	6	1	-0.4	0.6
COc1cc(F)c(C2=CC(=O)C[C@H](c3ccc(F)cc3)C2)cc1F	-2	3	-10	.	.	-1.1	2	-1	-1.2	-0.7
COc1ccccc1CN1C[C@@H]2C[C@@H](C3=Cc4cccc(OC)c4OC3)N3CCC[C@@]23C1=O	1	-16	-40	-14	26	6.0	3	-2	0.8	0.3
CCOC(=O)c1[nH]c(C)c(/C(O)=C2\C(=O)C(=O)N(CCCN(C)C)C2c2cccnc2)c1C (stereo not drawn)	-7	0	-3	-6	-4	2.6	.	.	.	0.2
N=c1c2c(n(Cc3cccc(Cl)c3)c3c1CCC3)CCCC2	94*	.	5	-13	58*	-0.6	-52*	-36*	-19*	-0.2
COc1ccc(NC(=O)Nc2ccc3c(c2)C(=O)N([C@H](C)CO)C[C@H](C)[C@@H](CN(C)S(=O)(=O)c2ccc(OC)cc2)O3)cc1	-4	-1	-1	.	.	7.2	-2&9	2&-8	0.0&18	0.0
CC(C)Oc1ccc(CSc2nnc3n(C)c(=O)c4c5c(sc4n23)CCCC5)cc1	2	-15	14	21	-3	1.2	.	.	.	0.3
CCC1(c2ccc(F)cc2)NC(=O)N(CC(=O)N(C)C2CCS(=O)(=O)C2)C1=O (stereo not drawn)	.	1	-5	-6	-9	-2.2	8	8	0.5	0.0
COc1ccc(-n2c(SCC(=O)Nc3cc(C)on3)nc3c(c2=O)SCC3)cc1OC	-5	-18	-2	-9	11	-0.2	5	6	1.6	0.2
COc1cc(OC)cc(C(=O)N[C@H](C(=O)N2CCc3ccccc32)C(C)C)c1	-3	-2	5	1	-8	1.0	.	.	.	?
O=[N+]([O-])c1ccccc1S(=O)(=O)N1CCN(Cc2ccccc2)CC1	.	-12	-4	-1	3	-3.6	-9	-8	-2.5	1.0
CCN(Cc1ccccc1)c1ccc(/C=N/NC(=S)NC(C)C)cc1	11	8	9	?	39	-0.7	.	.	.	0.0
CC(=O)c1ccc(N2CCN(S(=O)(=O)c3c(C)[nH]c(C)c3C(=O)N3CCCCC3)CC2)cc1	.	-1	6	3	11	-2.1	0	-1	-1.5	0.2
CC(=O)Oc1cc(OC(C)=O)c2c(C)cc(=O)oc2c1	-3	13	3	-4	-14	1.3	.	.	.	1.3
C=CCSc1nnc(NC(=O)Cc2ccc(OC)c(OC)c2)s1	-6	-10	0	-4	-2	1.9	1	11	-1.6	1.0
CCOc1ccc(CCNC(=O)C2CCN(S(=O)(=O)N3CC(C)CC(C)C3)CC2)cc1OCC (stereo not drawn)	-5	-4	2	6	10	-3.6	9	10	0.8	-1.4
CSc1ccc(C#N)cc1NC(=O)c1cccnc1Cl	-3	-2	2	31	-22	-1.8	20	7	-0.9	-0.8
Cc1c(NC(=O)CNCc2ccc3c(c2)OCO3)c(=O)n(-c2ccccc2)n1C	0	-4	1	5	12	-5.5	0	6	0.3	-0.1
CCc1sc(C(=O)NCCCN2CCCC2=O)cc1Br	-1	-8	1	-2	-8	-2.4	1	11	-1.5	-0.6
CSc1nc(Cl)c(C#N)c(-c2ccc(C)cc2)n1	3	33	-7	81*	0	-3.9	-2	-4	-0.5	0.6
CCOCC(=O)Nc1ccc(S(=O)(=O)Nc2nccs2)cc1	.	-3	-2	3	4	-2.8	13	11	0.2	0.5
COC(=O)c1ccc(NS(=O)(=O)c2cc3c4c(c2)C(C)C(=O)N4CCC3)cc1 (stereo not drawn)	-1	-2	0	-13	-8	-2.0	-3	2	3.5	0.1
CCS(=O)(=O)c1ccc(-c2csc(-c3ccccc3Cl)n2)c(Cl)c1Cl	16	.	-5	0	16	6.0	.	.	.	-1.2
CC(C)NC(=O)COC(=O)c1cccc(NS(=O)(=O)/C=C/c2ccccc2)c1	-4	.	-2	103*	2	-1.2	7	3	-1.5	1.4
O=C(c1ccccn1)c1cc2ccccc2n1S(=O)(=O)c1ccccc1	-6	.	32	15	-5	.	.	.	.	0.5
Cn1cccc1/C=N/NC(=O)c1ccccn1	10	.	-6	4	-1	-0.9	7	-1	-4.7	-4.6
COc1ccc(CN2CCN(Cc3ccco3)CC2)cc1	-3	-5	6	-11	20	-0.3	8	11	-0.7	1.1
CN1C(=O)N(C)C2(c3ccccc3)Nn3c(s/c(=C/c4ccccc4)c3=O)=NC12c1ccccc1 (stereo not drawn)	4	-6	8	3	-1	-6.1	.	.	.	0.0
O=C(O)c1cc(-c2cccc([N+](=O)[O-])c2)nc2ccccc12	6	.	-6	1	5	3.2	21	11	2.3	-0.3
CCCN1CCN(C(=O)Cn2ncc3ccccc32)CC1	.	27	2	-2	11	3.0	4	11	3.6	2.7
CC(=O)c1cccc(NC(=O)COC(=O)c2ccc3c(c2)OCCO3)c1	-2	-3	-3	4	-5	-6.5	13	7	0.5	-0.3
Cc1ccccc1C(=O)NCCN=C1NS(=O)(=O)c2ccccc21	.	-16	7	12	-9	1.1	15	15	1.5	0.1
Later entries:
SMILES	Beta apoptosis	ALR inh	Beta2AR agonist	Calb FLC	T cruzi inh	LANA-H2B inh	Ecoli rRNA inh	Ecoli rRNA inh OD600	Ecoli rRNA inh RFP	A1 inh
CCCc1cc(NCCCN2CCOCC2)n2c(nc3ccccc32)c1C#N	13	-6	-10	-1	24	3.9	.	.	.	1.0
CCN(CC)C(=O)CC(c1ccc(OC)cc1)c1c(O)cc(OC)cc1OC (stereo not drawn)	0	27	-7	-9	-14	-2.3	-33	-35	-25	0.5
COc1ccc(/C=C/C(=O)OCC(=O)NCCc2ccccc2)c(OC)c1	1	-3	4	.	.	-2.7	-9	-24	1.2	-0.6
O=C(c1cncc(Br)c1)N1CCN(S(=O)(=O)c2ccc(Cl)cc2)CC1	0	-9	-2	-1	-4	-3.3	-1	-13	-0.6	-0.2
COc1ccc(C(=O)Nc2ncc(C)s2)cc1S(=O)(=O)N1CCCC1	-7	.	2	3	8	-0.6	13	-9	0.7	0.3
COc1ccc(NC(C)=O)cc1NC(=O)c1cccc(C(F)(F)F)c1	-2	-6	3	2	-20	-1.2	1	0	-10	1.6
Cc1ccc(S(=O)(=O)N2CCC(C(=O)OCC(=O)NCc3ccco3)CC2)cc1C	-8	-5	-7	17	-8	-1.0	3	-3	3.6	0.4
CC(=O)NC1=NN(C(C)=O)C2(S1)C(=O)N(C(C)C)c1ccc(C)cc12 (stereo not drawn)	0	-1	0	-2	8	-1.2	.	.	.	0.1

Screening results: PubChem BioAssay, several laboratories
